VACV mCherry inh: vaccinia inhibition (mCherry reporter). Potency, µM (titrated, usually from 36.5 µM), for inactives: top-dose activity change, negative = inhibition, usual class: inhibitors. Vaccinia virus mCherry reporter infection, fluorescence; about a quarter of the inactives have no number. AID 720579. 310,000 tested, 0.63% active; active = well fitted inhibition curve with a large enough effect; inconclusive = small, poorly fitted or top-dose-only effect; inactive = no such curve, though single readings can be large or run the other way; tested in A549 cells; further: nearly all actives have a fitted effect of over 35% in size; inactives centre near -10
VACV Venus inh: vaccinia inhibition (Venus reporter). AID 720580. 330,000 tested, 0.46% active. Vaccinia virus Venus reporter expression, fluorescence. Potency, µM (highest dose often 36.5 µM), without a hit: at the highest dose activity change, negative = inhibition, hits mostly inhibitors; active means well fitted inhibition curve with a large enough effect; inconclusive means small, poorly fitted or top-dose-only effect; inactive means no such curve, though single readings can be large or run the other way; tested in A549 cells; further: nearly all actives have a fitted effect of over 30% in size; inactives centre near -10
* = called active by the depositor; i = inactive; ? = inconclusive; · = not tested or not shown; [ ] = dose if it differs, or a comment. On the % scale 0 is the no-effect control and ±100 the full control effect; potency means the concentration at half of the fitted maximal effect.

The line under a structure holds: VACV Venus inh, VACV mCherry inh
- Cc1ccc(C(CCN(Cc2ccccc2)C(=O)c2ccco2)c2ccco2)cc1 (stereo not given)
→ 7%, -9%
- CSc1ccccc1NC(=S)Nc1ccccc1C(F)(F)F
→ -3%, i
- Cc1cc2cccc(C)c2nc1SCC(=O)NNC(=O)c1ccco1
→ -14%, -10%
- Nc1c(C(=O)NCc2cccs2)nnn1CC(=O)Nc1cccc(Cl)c1
→ -13%, i
- COc1ccc(C=O)cc1Cn1ccnc1
→ -8%, i
- COc1ccc(-c2nc3ccccc3c(=O)o2)cc1OC
→ -15%, -15%
- CCC[N+]1(CC#CC2(O)CCCCC2)CCOCC1
→ -1%, i
- N#Cc1ccc(OCC(=O)NCC2(N3CCCCC3)CCCCC2)cc1
→ -2%, -12%
- CC(C)Oc1ccc(C(=O)N/N=C/c2ccc(-c3ccc(S(=O)(=O)Nc4ncccn4)cc3)o2)cc1
→ -16%, -11%[1.46 µM]
- CCOC(=O)CC(NC(=O)CCc1c(C)nc2c(-c3ccccc3)c(C)nn2c1C)c1ccc(OC(C)C)cc1 (stereo not given)
→ -18%, -25%
- COc1ccc(/C=N/NC(=O)c2ccc(COc3cccc4cccnc34)cc2)cc1O
→ -21%, -18%
- Cc1ccc(Nc2nc(NCc3ccco3)nc3nccnc23)cc1Cl
→ -10%, -11%
- CC(C)c1ccc(S(=O)(=O)N2CCN(C(=O)C3CCN(C(=O)c4ccc(F)cc4)CC3)CC2)cc1
→ 1%, -7%
- CCN(CC)c1ccc(-c2nc(-c3ccco3)no2)cc1[N+](=O)[O-]
→ -15%, -10%
- Cc1cccc(C(=O)NCCCNC(=O)c2ccco2)c1
→ -4%, -12%
- Cc1ccccc1C(=O)N=c1sccn1C
→ -15%, -16%
- COc1ccc(C)cc1NC(=O)N1CCC(CN2CCOCC2)CC1
→ -15%, -7%
- O=C(Nc1ccc(Cl)c(C(=O)N2CCOCC2)c1)c1ccccc1
→ -10%, -18%
- COc1ccc(NC(=O)CCS(=O)(=O)c2ccc3c(c2)CCCN3C(C)=O)cc1
→ -5%, -9%
- Cc1cc(C(=O)Cn2c(CO)nc3ccccc32)c(C)n1C
→ -9%, -19%
- N/C(=N\OC(=O)c1ccccc1[N+](=O)[O-])c1cccnc1
→ -11%, -22%
- CC(C#N)CCC#N (stereo not given)
→ -9%, 0%
- COc1cc(CCC(=O)N2CCN(c3ccccc3)CC2)cc(OC)c1OC
→ -3%, -13%
- Cn1c(CCCOc2ccc(Cl)cc2Cl)nnc1SCC(=O)Nc1nccs1
→ -29%, -30%
- O=C(Nc1ccc(F)c(Cl)c1)c1cc(C2CCCCN2C(=O)c2cccs2)on1 (stereo not given)
→ -19%, -22%
- COC(=O)c1cc2ccsc2n1Cc1ccccc1F
→ -5%, i
- COc1ccc(C2CC(=O)Oc3c(C(C)C)ccc(C)c32)cc1 (stereo not given)
→ ?, -5%
- Cc1occc1C(=O)Nc1sccc1C(N)=O
→ -23%, -6%
- COc1ccc(C(c2nnnn2C(C)(C)C)N2CCC3(CC2)C(=O)NCN3c2ccccc2)cc1 (stereo not given)
→ -6%, i
- COc1ccc(/C=N/NC(=O)CC(=O)NCCc2ccccc2)cc1OC
→ -9%, -23%
- COc1ccc(NC(=O)CN(C)CC(=O)Nc2cccc(S(=O)(=O)N(C)c3ccccc3)c2)cc1
→ -21%, -9%
- CCOc1ncccc1C(=O)Nc1nnc(C2CC2)s1
→ -3%, -17%
- CC(=O)N(C(C)=O)S(=O)(=O)c1ccc(N=NN2CCCCC2)cc1
→ -5%, -20%
- Cc1ccc(C(=O)Nc2nnc(CC(=O)N/N=C/c3ccc(O)c(O)c3)s2)cc1
→ -20%, -12%
- CCOC(=O)C1C(=O)NC(c2ccccc2)=NC1c1ccc(Br)cc1 (stereo not given)
→ -11%, -15%
- Cc1ccccc1NC1(C#N)CCCCC1
→ 2%, i
- Cc1ccc(C(=O)CSc2nc3cccnc3n2C)cc1
→ -14%, -2%
- COC(=O)C(C(=O)OC)C(CC(=O)c1ccc(Br)cc1)c1ccccc1 (stereo not given)
→ -10%, -13%
- CC(C)(C)S(=O)(=O)c1ccsc1C(=O)O
→ -6%, i
- CCCN(CC(=O)Nc1cccc(Br)c1)CC(=O)Nc1ccc(F)c(F)c1F
→ ?, -29%
- O=C(NCCc1c[nH]c2ccccc12)C(F)(F)C(F)F
→ -8%, -2%[1.46 µM]
- Cc1nc2ccc(F)cc2cc1C(=O)Nc1ccc(Cl)c(Cl)c1
→ -15%, -18%
- Cc1nc2ccccn2c1/C(O)=C1\C(=O)C(=O)N(CCN(C)C)C1c1ccco1 (stereo not given)
→ 2%, i
- CC(=O)N1c2ccc(S(=O)(=O)N3CCCC(C(=O)Nc4cccc(F)c4)C3)cc2CC1C (stereo not given)
→ ?, -27%
- CSc1nnc(NC(=O)c2cc(=O)c3cc(C)c(C)cc3o2)s1
→ -7%, -6%
- COCCn1cnc2c1c(=O)n(Cc1c(F)cccc1Cl)c(=O)n2Cc1ccccc1
→ 1%, ?
- O=C(CNC(=O)c1ccc2c(c1)OCO2)Nc1ncccc1O
→ -7%, -18%
- Cc1onc(-c2ccc(F)cc2F)c1C(=O)Nc1cccc(C(F)(F)F)c1
→ 0%, -13%
- Cc1ccccc1-c1cc(C(=O)NCc2cccc(Br)c2)nn1CC1CC(c2cccc([N+](=O)[O-])c2)=NO1 (stereo not given)
→ -11%, ?
- CC(NC(=O)COC(=O)c1ccc[nH]c1=O)c1ccccc1 (stereo not given)
→ -8%, 0%
- Cc1oc(-c2cc(F)cc(F)c2)nc1CN1CCSCC1
→ -10%, i
- O=c1cc(N2CCOCC2)[nH]c(=O)n1C1CCCCC1
→ -16%, -18%
- CCOC(=O)c1c(C)sc2c1N(C(C)=O)c1cc(Cl)ccc1S2
→ -32%, ·
- CC(C)Cn1cnc2c(N)nc3ccccc3c21
→ -23%, -3%
- O=C(CC1CCCC1)Nc1nc2ccccc2[nH]1
→ -11%, 1%
- COc1ccc(CCNC(=O)CCC(=O)c2cccs2)cc1OC
→ -5%, -10%
- C=C(C)C(=O)NC1=NN(c2ccccc2)C(=O)C1
→ -12%, -14%
- COc1ccc(Cc2c(-c3ccc(Cl)cc3)nc3c(C)cc(Br)cn23)c(C)c1
→ -11%, i
- COC(=O)N/N=C/c1cn(Cc2ccccc2F)c2ccccc12
→ -18%, -6%
- COC(=O)[C@]1(C)N[C@H](CN(C)S(=O)(=O)c2ccc(OC)cc2)[C@@H]2C(=O)N(C)C(=O)[C@@H]21
→ -8%, i

23 compounds from above, sorted by molecular weight, ascending:
The line under a structure holds: VACV Venus inh, VACV mCherry inh
- Cc1ccccc1NC1(C#N)CCCCC1
→ 2%, i
- CC(C)Cn1cnc2c(N)nc3ccccc3c21
→ -23%, -3%
- O=C(CC1CCCC1)Nc1nc2ccccc2[nH]1
→ -11%, 1%
- CC(C)(C)S(=O)(=O)c1ccsc1C(=O)O
→ -6%, i
- O=c1cc(N2CCOCC2)[nH]c(=O)n1C1CCCCC1
→ -16%, -18%
- Cc1ccc(C(=O)CSc2nc3cccnc3n2C)cc1
→ -14%, -2%
- CC(NC(=O)COC(=O)c1ccc[nH]c1=O)c1ccccc1 (stereo not given)
→ -8%, 0%
- Cc1oc(-c2cc(F)cc(F)c2)nc1CN1CCSCC1
→ -10%, i
- O=C(CNC(=O)c1ccc2c(c1)OCO2)Nc1ncccc1O
→ -7%, -18%
- COC(=O)N/N=C/c1cn(Cc2ccccc2F)c2ccccc12
→ -18%, -6%
- COc1ccc(CCNC(=O)CCC(=O)c2cccs2)cc1OC
→ -5%, -10%
- Cc1nc2ccc(F)cc2cc1C(=O)Nc1ccc(Cl)c(Cl)c1
→ -15%, -18%
- CCOC(=O)c1c(C)sc2c1N(C(C)=O)c1cc(Cl)ccc1S2
→ -32%, ·
- Cc1onc(-c2ccc(F)cc2F)c1C(=O)Nc1cccc(C(F)(F)F)c1
→ 0%, -13%
- Cc1nc2ccccn2c1/C(O)=C1\C(=O)C(=O)N(CCN(C)C)C1c1ccco1 (stereo not given)
→ 2%, i
- CCOC(=O)C1C(=O)NC(c2ccccc2)=NC1c1ccc(Br)cc1 (stereo not given)
→ -11%, -15%
- COC(=O)C(C(=O)OC)C(CC(=O)c1ccc(Br)cc1)c1ccccc1 (stereo not given)
→ -10%, -13%
- COC(=O)[C@]1(C)N[C@H](CN(C)S(=O)(=O)c2ccc(OC)cc2)[C@@H]2C(=O)N(C)C(=O)[C@@H]21
→ -8%, i
- COCCn1cnc2c1c(=O)n(Cc1c(F)cccc1Cl)c(=O)n2Cc1ccccc1
→ 1%, ?
- COc1ccc(Cc2c(-c3ccc(Cl)cc3)nc3c(C)cc(Br)cn23)c(C)c1
→ -11%, i
- CCCN(CC(=O)Nc1cccc(Br)c1)CC(=O)Nc1ccc(F)c(F)c1F
→ ?, -29%
- CC(=O)N1c2ccc(S(=O)(=O)N3CCCC(C(=O)Nc4cccc(F)c4)C3)cc2CC1C (stereo not given)
→ ?, -27%
- Cc1ccccc1-c1cc(C(=O)NCc2cccc(Br)c2)nn1CC1CC(c2cccc([N+](=O)[O-])c2)=NO1 (stereo not given)
→ -11%, ?

Further compounds follow.
The line under a structure holds: VACV Venus inh, VACV mCherry inh
- O=C1CCCN1CCCNc1nc(NCc2cccs2)nc2ccsc12
→ ?, ?
- c1coc(-c2ccccc2CN2CCOc3ccc(CN4CCOCC4)cc3C2)c1
→ -5%, -8%
- O=C(NNC(=O)c1ccccc1OCc1ccccc1)c1ccccc1O
→ ?, 7.1µM*
- CCc1nnc(NC(=O)CSc2nnc(CNC(=O)c3ccccc3F)n2C)s1
→ -6%, -16%
- O=C(Oc1cccc(/C=N/Nc2nc(Nc3ccccc3)nc(N3CCOCC3)n2)c1)c1ccco1
→ ?, -30%
- c1ccc(OCCSc2nnnn2-c2ccccc2)cc1
→ -5%, i
- Cc1cc(C)nc(NC(=S)Nc2cccc(F)c2)c1
→ -18%, 0%
- Cc1onc(-c2c(Cl)cccc2Cl)c1C(=O)NCc1cccs1
→ -6%, -16%
- OCc1cn(-c2ccccc2)nc1-c1ccc(-c2nn(-c3ccccc3)cc2CO)cc1
→ ?, ·
- Cc1ccc(C)c(S(=O)(=O)N2CCCCC2CCNC(=O)C(=O)NCc2ccco2)c1 (stereo not given)
→ ?, ?
- COc1ccc(C2CC(c3c(-c4ccccc4)c4cc(Cl)ccc4[nH]c3=O)=NN2S(C)(=O)=O)cc1 (stereo not given)
→ -11%, ·
- O=C(CSC1=NS(=O)(=O)c2ccccc2N1)N1CCCCC1
→ 0%, -14%
- O=C(c1[nH]ncc1-c1cccc(Br)c1)C1CO1 (stereo not given)
→ -15%, i
- Cc1ccc(-n2nc3c(=O)n(C(C)C(=O)NCc4ccc(OC(C)C)cc4)nc(C)c3c2C)cc1 (stereo not given)
→ -22%[7.34 µM], -16%[7.34 µM]
- COc1ccc(NS(=O)(=O)c2cc(S(C)(=O)=O)ccc2C)cc1
→ -15%, -19%
- Cc1ccc2nc(NCCCN3CCOCC3)c(C=NCCCN3CCOCC3)c(=O)n2c1
→ 16%, 23%
- CCn1nc(C)c(NC(=O)CC23CC4CC(CC(C4)C2)C3)c1C
→ -17%, -16%
- CC(C)CCNC(=O)c1ccc2c(c1)NC(=O)C(C(C)C)N2 (stereo not given)
→ -4%, 3%
- COC(=O)[C@]1(Cc2ccccc2)N[C@H](CN(C)C(=O)c2ccc(C(C)(C)C)cc2)[C@@H]2C(=O)N(Cc3ccccc3)C(=O)[C@@H]21
→ ?, ?
- COCCNC(=O)C1CC(c2ccccc2C(F)(F)F)=NO1 (stereo not given)
→ -3%, i
- O=C(Cc1ccccc1)NNC1CC(=O)N(c2ccc(Cl)cc2)C1=O (stereo not given)
→ -4%, i
- CS(=O)(=O)NCc1nnc(SCc2c(F)cccc2Cl)o1
→ -18%, -10%
- CCNc1nc(SCC(=O)Nc2ccc(Cl)c(Cl)c2)nc(N2CCOCC2)n1
→ -14%, -5%
- O=C(Nc1ccc(Cl)c(Cl)c1)Nc1cc(C(=O)N2CCOCC2)ccc1N1CCCCC1
→ -9%, i
- COc1ccc(CNC(=O)Nc2cn(CC(C)C)c(=O)c3ccccc23)c(OC)c1
→ 12%, 9%
- N#Cc1cccc(Cn2nnc(-c3ccccc3)n2)c1
→ -29%, -13%
- CCN(CC)C(=O)c1nc[nH]c1C(=O)N1CCN(c2ccccc2)CC1
→ -13%, -25%
- CC(C)c1ccc(C2=CC(c3cccc(Cl)c3)n3ncnc3N2)cc1 (stereo not given)
→ 1%, -9%
- COc1ccc(CN2CCN(C(=O)c3ccco3)CC2)cc1
→ -1%, ·
- CCc1nc2ccccc2n2c(-c3ccccc3)c3c(=O)n(C)c(=O)n(C)c3c12
→ -11%, -13%
- CO/N=C/C(C#N)=C/c1cc(C(=O)c2ccc(F)cc2)cn1C
→ -2%, -1%
- Cc1onc(-c2c(Cl)cccc2Cl)c1C(=O)Nn1cnnc1
→ -7%, ·
- O=C1c2ccccc2CCc2ccccc21
→ -3%, -12%
- Cc1cc(=O)c(C(=O)O)cn1Nc1ccc(F)cc1
→ -10%, -15%
- COc1ccc(C(C)(C)C)cc1NC(=O)CCCn1c(=O)oc2ccccc21
→ -28%, i

Fetched one by one from the list above:
The line under a structure holds: VACV Venus inh, VACV mCherry inh
- COc1ccc(/C=N/NC(=O)c2ccc(COc3cccc4cccnc34)cc2)cc1O
→ -21%, -18%
- CS(=O)(=O)NCc1nnc(SCc2c(F)cccc2Cl)o1
→ -18%, -10%
- Cc1cc2cccc(C)c2nc1SCC(=O)NNC(=O)c1ccco1
→ -14%, -10%
